NPYLR7 agonist = mosquito NPYLR7 agonism; HEK293T NPYLR7/Galpha15, GCaMP6s calcium fluorescence; activation, % at 10 µM; 270,000 tested, 0.15% active; AID 1259423; in the data active = activation above about 40%;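 also: 0% = vehicle and 100% = reference agonist at the receptor; some compounds past the cut are filed as inactive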
NPYLR7 agonist max-min = further read-out of NPYLR7 agonist, marked with its call; activation, %; measured here: Max-Min RFU normalised activation; some inactives read as strong as hits;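 span of the calcium signal over five minutes; 0% = vehicle and 100% = native peptide agonist; compound fluorescence can raise it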
Numbers without * were called inactive; & = joins results of further samples. An excerpt (hit frequency here may not be typical).

Second line of a record – NPYLR7 agonist | NPYLR7 agonist max-min
1: CCc1nc2ccc(C(=O)Nc3ccc4c(c3)OCC(=O)N4)cn2c1N(C)C(=O)COc1ccccc1
  -5 | -9
2: CCOC(=O)CC1(NC(=O)C2CCC(=O)N(CCN3CCOCC3)C2)CCCCC1 (stereo not drawn)
  5 | 5
3: OC(c1ccccc1)C1CCN(c2cncc(Cl)n2)CC1 (stereo not drawn)
  8 | 4
4: COCCN(Cc1nc2cc(Cl)ccc2o1)C(=O)c1cccc(C#N)c1
  4 | 7
5: O=C1OC(c2ccccc2F)=N/C1=C/C(Cl)=C/c1ccccc1
  -1 | -5
6: COc1ccc(C(=O)Oc2ccc(Cl)cc2NC2=NS(=O)(=O)c3ccccc32)cc1OC
  9 | 10
7: CC1(C)CCC(NC(=O)C2CCCN2C(=O)C2CC2)c2ccccc21 (stereo not drawn)
  6 | 3
8: C=C(C)CSc1nc2c(c(=O)n(C)c(=O)n2C)n1Cc1cccc(C)c1
  -2 | -5
9: CCN1CCN(c2ccccc2NC(=O)/C=C/c2ccccc2F)CC1
  4 | 1
10: CCCCN(Cc1cccn1Cc1cccc(C)c1)C(=O)CN(C(=O)c1ccccc1F)C(C)C
  -6 | -7
11: COc1ccc(-c2ccc(CCC(=O)NCc3cccc(Cl)c3)n2-c2ccc(SC)cc2)cc1
  -3 | -6
12: COc1cccc(CCNC(=O)CC2C(=O)NCCN2Cc2ccc3ccccc3c2)c1 (stereo not drawn)
  2 | -1
13: CCOC(=O)c1[nH]c2ccccc2c1NC(=O)C1CCCC1
  1 | 18
14: Cc1ccc(C(=O)c2coc3cc(C)ccc3c2=O)cc1
  -2 | -3
15: CN(Cc1n[nH]c2c1CCCC2)Cc1cc2ccccc2[nH]c1=O
  3 | 5
16: OCC1(Cc2ccccc2)CCN(Cc2ccccc2C(F)(F)F)CC1
  5&2 | 3&5
17: O=C(N[C@@H]1c2ccccc2C2(CCNCC2)[C@H]1O)c1scc2c1OCCO2
  6 | 4
18: Cc1ccc(C(O)c2ncc(-c3ccc(C(F)(F)F)cc3)[nH]2)cc1F (stereo not drawn)
  -1 | -3
19: O=C(NC1CCCCC1)c1cccn2c(=O)c3c4c(sc3nc12)CCCC4
  11 | 3
20: Clc1ccc(-c2nc(-c3cccnc3)no2)c(Cl)c1
  6 | 4
21: Cc1nc(-c2ccc(C(F)(F)F)cc2)sc1C(=O)NOC1CCCCO1 (stereo not drawn)
  14 | 14
22: CCCCc1ccc(N2C(=O)c3cccc4c(N(C)C)ccc(c34)C2=O)cc1
  42 | 21
23: Cc1ccc(-c2csc(-n3[nH]c(C)c(N=Nc4cccc(C(F)(F)F)c4)c3=O)n2)cc1
  -6 | -9
24: CCNc1nc(NCC)nc(SCC(=O)c2ccc(OC)cc2)n1
  9 | 11
25: O=C(NCc1nnc2ccccn12)c1cc(S(=O)(=O)Nc2ccc(F)cc2)ccc1Cl
  4 | 4
26: COc1ccc(CN(Cc2nc(C(=O)N3CCN(C)CC3)co2)C(C)C)c(OC)c1
  3 | 13
27: CCOc1ccc(NC(=O)CSc2nc3c(-c4ccccc4)c[nH]c3c(=O)n2C2CC2)cc1
  1 | -2
28: CC(C)C(=O)N1N=C(c2ccccc2NS(C)(=O)=O)CC1c1ccccc1F (stereo not drawn)
  0 | -3
29: Cn1cccc1C(=O)c1ccc(Br)o1
  0 | -8
30: COc1ccc(-c2noc(CSc3nnc(C4(c5ccc(Cl)cc5)CCC4)o3)n2)cc1
  -3 | -14
31: CSc1ncc(CNCc2ccncc2)c(N2CCCC2)n1
  15 | 18
32: CS(=O)(=O)C1(C(=O)Nc2cccnc2Cl)CCCC1
  7 | 4
33: O=C(c1cc(-c2ccccc2)on1)N1CCCC(N2CCC(CO)CC2)C1 (stereo not drawn)
  13 | 3
34: CN(Cc1cc2cc(F)ccc2[nH]1)Cc1nccn1C
  8 | 8
35: O=C(NCCc1csc(-c2cnccn2)n1)c1cccc2ccnn12
  5 | 3
36: CC(C)C(C)Nc1ccc(Cl)c(C(=O)NCc2ncc[nH]2)c1 (stereo not drawn)
  2 | 15
37: CCOC(=O)N1CCN(c2nncc(-c3ccc(OC)cc3)n2)CC1
  -6 | -7
38: COc1ccccc1OC1CN(C(=O)c2cccc(C#CC(C)(C)O)c2)C1
  4 | 1
39: COc1ccc(NS(=O)(=O)c2ccc(F)c(Cl)c2)c(C(=O)NCc2ccccc2)c1
  6 | 20
40: CCNC(=S)NCCc1cc2ccc(C)cc2[nH]c1=O
  6 | 4
41: CCc1cc2c(=O)n3c(nc2s1)C(=Cc1cccc(OC)c1OC)CC3
  9 | 2
42: COc1ccc(CNC(=O)NCC2CN(c3ccc4c(c3)OCO4)C(=O)O2)cc1 (stereo not drawn)
  -1 | 9
43: CCCc1cc(Nc2ccc(NC(C)=O)cc2)n2ncc(-c3ccccc3)c2n1
  2 | 2
44: O=C1OC(c2ccccc2F)=N/C1=C\c1coc2ccccc2c1=O
  2 | 7
45: CCc1ccccc1-c1cc(CO)ccn1
  -1 | -1
46: c1ccc2c(c1)CCCC2Nc1ncnc2sc3c(c12)CCC3 (stereo not drawn)
  5 | 2
47: CCCCn1c(CCNC(=O)C2CCCCC2)nc2ccccc21
  -8 | -5
48: Cc1ccc(S(=O)(=O)N2CCN(CC(=O)NC3CC3)CC2)cc1C
  16 | 7
49: COc1ccc(-c2nnc3ccc(OCCNC(=O)C(F)(F)F)nn23)cc1OC
  -1 | -1
50: COc1ccccc1CCC(=O)Nc1ccc2c(c1)CN(C(=O)c1cc(C(C)C)[nH]n1)CC2
  5&4 | -2&9
51: C=CCC(O)(CC=C)C(C)Nc1nncc(-c2ccc(OC)cc2)n1 (stereo not drawn)
  -5 | -6
52: COc1ccc(-c2nc3cc(C)ccn3c2NC(=O)C(C)Cl)cc1OC (stereo not drawn)
  -4 | 2
53: O=C(CCc1ccccc1)N1CCN(C(C(=O)N2CCc3ccccc3C2)C2CCCC2)CC1 (stereo not drawn)
  -3 | 1
54: Cc1cc(NC(=O)c2ccccc2C)n(-c2nc(C)c(C)c(=O)[nH]2)n1
  10 | 3
55: Cc1ccccc1Cn1cc(S(=O)(=O)CC(=O)Nc2nccs2)c2ccccc21
  29 | 28
56: O=C(Cn1ccc(C(F)(F)F)n1)Nc1ccc(C(F)(F)F)cc1
  3 | 1
57: CC(Oc1ccc([N+](=O)[O-])cc1)C(=O)NC1(C#N)CCCCC1 (stereo not drawn)
  7 | 4
58: CC(C(=O)N1CCN(CC(O)C(C)(C)C)CC1)n1ccnc1 (stereo not drawn)
  6 | 2
59: COc1cccc(NC(=O)CN2CN(c3ccccc3)C3(CCN(C(=O)c4cccc(Br)c4)CC3)C2=O)c1
  19 | 20
60: CN1CC(C(=O)N2CCc3c(c(C(=O)O)nn3CCCc3ccccc3)C2)CC1=O (stereo not drawn)
  21 | 15

Following part.
Second line of a record – NPYLR7 agonist | NPYLR7 agonist max-min
61: CN(Cc1cccc2cnccc12)c1cc(N2CCOCC2)nc(N)n1
  0 | -3
62: COCCN(Cc1ccccc1OS(=O)(=O)c1ccc(OC)cc1)C(=O)C1CCC1
  20 | 19
63: COc1cccc2c1OC1(C)CC2C2C(=O)CC(C)(C)CC2=N1 (stereo not drawn)
  0 | -1
64: O=C(O)c1cc(-c2cccc3c2CCNC3)cs1
  5 | 1
65: CC(NC(=O)C1CCN(CC2CC2)CC1)c1cccc2ccccc12 (stereo not drawn)
  -12 | -14
66: CC(=O)OCC(=O)Nc1cccc(-c2cccc(-c3ccc(F)cc3)n2)c1
  -6 | -8
67: COC(=O)CCCCCNc1n[nH]c(=O)[nH]c1=O
  6 | 3
68: Cc1cc(C(=O)NC2CCN(Cc3ccccc3)CC2)n2nc(C(C)(C)C)cc2n1
  3 | 16
69: Cc1onc(-c2ccccc2)c1C(=O)N1CCc2cc(O)c(O)cc2C1C (stereo not drawn)
  -3 | -6
70: COc1ccc(NC(=O)Cn2c(C)cc(C)c(C#N)c2=O)cc1OC
  1 | -9
71: CCOC(=O)C(=O)N1N=C(C(F)(F)F)CC1(O)C(C)(C)C (stereo not drawn)
  5 | 3
72: CCc1cc(N2CCC(C(=O)N(C)C(C)C)CC2)nc(-c2ccccn2)n1
  2 | 13
73: O=S(=O)(NC1CCSc2ccccc21)c1ccccc1 (stereo not drawn)
  7 | 4
74: COc1ccc(-c2csc(N(c3ccc(OC)cc3)C(C)C(=O)N3CCOCC3)n2)cc1 (stereo not drawn)
  3 | -1
75: O=C(Nc1ccc(Cl)cc1Cl)N1CCc2nc(Cc3cccc(F)c3)nc(N3CCOCC3)c2C1
  -3 | 10
76: O=C(CCCc1cn[nH]c1)N1CC2C[C@@H]3CC1C[C@H](C2)C3
  4 | -3
77: ON=Cc1cccc(OCc2ccccc2)c1
  -3 | -3
78: CCN(CC)c1ccc(C=NNC(=O)Cc2cccs2)cc1
  -1 | -2
79: C=CCN1C(=S)SC2CS(=O)(=O)CC21C (stereo not drawn)
  -1 | -3
80: O=C(NCCc1ccc(F)cc1)c1cc(=O)c(OCc2ccccc2)c[nH]1
  5 | 5

4 compounds out of the list, arranged by formula weight, ascending:
Second line of a record – NPYLR7 agonist | NPYLR7 agonist max-min
64: O=C(O)c1cc(-c2cccc3c2CCNC3)cs1
  5 | 1
76: O=C(CCCc1cn[nH]c1)N1CC2C[C@@H]3CC1C[C@H](C2)C3
  4 | -3
65: CC(NC(=O)C1CCN(CC2CC2)CC1)c1cccc2ccccc12 (stereo not drawn)
  -12 | -14
61: CN(Cc1cccc2cnccc12)c1cc(N2CCOCC2)nc(N)n1
  0 | -3

Numbers 77 to 80 of the list above:
Second line of a record – NPYLR7 agonist | NPYLR7 agonist max-min
77: ON=Cc1cccc(OCc2ccccc2)c1
  -3 | -3
78: CCN(CC)c1ccc(C=NNC(=O)Cc2cccs2)cc1
  -1 | -2
79: C=CCN1C(=S)SC2CS(=O)(=O)CC21C (stereo not drawn)
  -1 | -3
80: O=C(NCCc1ccc(F)cc1)c1cc(=O)c(OCc2ccccc2)c[nH]1
  5 | 5

(continued)
Second line of a record – NPYLR7 agonist | NPYLR7 agonist max-min
81: NC(=O)c1cc(-c2cc(NCc3ccccn3)nc3[nH]ccc23)cs1
  6 | 6
82: COCCN1CCCC(O)(CN2CCN(Cc3ccncc3)CC2)C1=O (stereo not drawn)
  -8 | -9
83: CCOC(=O)N1CCN(C(c2ccc(F)c(F)c2)C2Sc3nc(C)nn3C2=O)CC1 (stereo not drawn)
  -7 | -10
84: CSCCC(NS(=O)(=O)c1ccccc1F)C(=O)Nc1cc(C)ccn1 (stereo not drawn)
  3 | 1
85: O=C(CC(c1ccccc1)c1ccccc1F)NCCc1cccnc1 (stereo not drawn)
  1 | -1
86: CCCc1cc(N2CCN(c3ccccn3)CC2)n2nc(C)c(-c3ccccc3)c2n1
  3 | 21
87: COc1cccc(CCN2CCC(C(=O)NC(c3ccc(F)cc3)c3ccc4ccccc4n3)CC2)c1 (stereo not drawn)
  5 | 1
88: Cc1ccsc1[C@@H]1CCN(C(=O)c2ccc3sc(N)nc3c2)C[C@H]1O
  2 | 1
89: N#C/C(=C\c1ccc2noc(-c3ccccc3)c2c1)C(=O)Nc1sc2c(c1C(N)=O)CCCC2
  10 | 9
90: C=CCn1nc(C(=O)N2CCOCC2)c2c1CCC(NCCc1ccc(Cl)cc1)C2 (stereo not drawn)
  20 | 9
91: COc1cccc(CN(C)C(=O)c2sc(=O)n(Cc3ccccc3OC)c2C)c1
  1 | 0
92: O=C(c1ccc(-c2cc(Cl)ccc2Cl)o1)N1CCN(S(=O)(=O)c2ccccc2)CC1
  0 | 0
93: CCc1nc(C)nc(N2CCN(C(=O)c3ccccc3Cl)CC2)c1Cc1cc(C)ccc1C
  3 | 12
94: O=c1c(S(=O)(=O)c2ccc(F)cc2)c[nH]c2ccc(Cl)cc12
  1 | 1
95: COc1cccc(C(=O)N2CCC(n3cnc4ccc(C)cc43)CC2)c1C
  -6 | -7

Source: PubChem BioAssay (Fisher Drug Discovery Resource Center)
